2A StopGo – lowers the luciferase signal of an FMDV 2A StopGo reporter | human cells with a luciferase reporter of 2A StopGo recoding; control for the full effect not named in the record | Potency, µM (doses to about 57.9 µM), inactives show at the top dose signal change, negative = less light | actives 1.2% (n = 410,000) | AID 1159524; active = well fitted falling curve with a large enough effect; inconclusive = small, poorly fitted or top-dose-only effect; inactive = no such curve, though single readings can be large or run the other way; tested in HEK293T cells; note: % is set by controls: 0 for no effect and ±100 for the full control effect; nearly all actives have a fitted effect of over 45% in size; luciferase light after 4 h
Marburg entry inh – inhibitors of Marburg virus binding or cell entry; Potency, µM (titrated, usually from 37.8 µM), for the others: at the top dose activity change, negative = inhibition, most hits filed as inhibitors; AID 540276; Marburg virus pseudotyped entry inhibition, cell reporter; control for the full effect not named in the record; about a third of the inactives were read at about 46 µM; actives 1.8% (n = 300,000); active = well fitted inhibition curve with a large enough effect; inconclusive = small, poorly fitted or top-dose-only effect, or effect the other way; inactive = flat fitted curve, though single readings scatter; tested in HEK293 cells; about a fifth of its hits are not listed in these tables; note: % is set by controls: 0 for no effect and ±100 for the full control effect; luciferase read-out
Cruzain inh noDet – inhibitors of Trypanosoma cruzi cruzain without detergent; P25779; purified cruzain, Z-FR-AMC fluorescence, no detergent; Potency, µM, for the others: max response, negative = inhibition, most hits filed as inhibitors; actives 2.3% (n = 200,000); AID 1476;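 note: plate controls were enzyme without inhibitor for no effect and buffer without enzyme for full effect; nearly all actives have a fitted effect of over 40% in size; top concentration of the series not given in the record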
Target sequence (P25779 123-467 limits assumed): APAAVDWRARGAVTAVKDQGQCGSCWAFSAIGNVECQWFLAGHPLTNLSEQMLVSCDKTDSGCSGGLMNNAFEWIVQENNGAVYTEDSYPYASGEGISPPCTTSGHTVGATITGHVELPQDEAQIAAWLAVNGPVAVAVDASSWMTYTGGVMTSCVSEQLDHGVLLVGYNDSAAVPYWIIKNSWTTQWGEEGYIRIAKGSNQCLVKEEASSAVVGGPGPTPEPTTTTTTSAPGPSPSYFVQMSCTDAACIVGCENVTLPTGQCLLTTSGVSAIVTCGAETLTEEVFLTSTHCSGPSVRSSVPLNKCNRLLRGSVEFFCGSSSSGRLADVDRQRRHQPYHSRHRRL
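Purified cruzain at 1.5 nM, pre-incubated 15 min with compound at room temperature in 100 mM sodium acetate pH 5.5, 5 mM DTT, 0.00005% Triton X-100. Reaction started with 2 uM Z-FR-AMC; AMC fluorescence increase over 60 s gives rate.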
RE007 growth inh – less growth of the S. pombe RE007 Vpr strain. S. pombe RE007 Vpr strain, BacTiter-Glo ATP luminescence, 24 h; control for the full effect not named in the record. Potency, µM (doses to about 92.2 µM), inactives show at the highest dose activity change, negative = less growth. actives 0.21% (n = 360,000). AID 651644; active = well fitted falling curve with a large enough effect; inconclusive = small, poorly fitted or top-dose-only effect; inactive = no such curve, though single readings can be large or run the other way;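 note: % is set by controls: 0 for no effect and ±100 for the full control effect; nearly all actives have a fitted effect of over 50% in size; the assay follows cell death caused by Vpr and the record does not say whether a fall means rescue or toxicity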
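Fission yeast RE007 carrying one integrated HIV-1 vpr copy, seeded at OD 0.01 in PMG+AL medium with 23 nL pinned compound. Grown 24 h at 30 degrees; viability read by BacTiter-Glo luminescence after 5 min.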
Cruzain Triton – blocks cruzain activity in presence of Triton detergent | P25779 | actives 0.43% (n = 200,000) | AID 1478 | purified cruzain, Z-FR-AMC fluorescence, 0.01% Triton | Potency, µM, for the others: max response, negative = inhibition, hits mostly inhibitors;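 note: plate controls were neutral wells for no effect and buffer without enzyme for full effect; nearly all actives have a fitted effect of over 40% in size; top concentration of the series not given in the record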
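Steps: dispense cruzain (1.5 nM final) in acetate buffer pH 5.5 with DTT and 0.01% Triton X-100; pin-transfer compounds; incubate 15 min RT; add Z-FR-AMC (2 uM final); read fluorescence every 30 s, using the 60 s intensity change.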
NS1 function inh – influenza NS1 inhibition; S. cerevisiae slowed by influenza A NS1, growth recovery by OD600; actives 0.4% (n = 270,000); Potency, µM (series often up to 46.1 µM), for the others: at the top dose activity, positive = more growth; active means well fitted rising curve with a large enough effect; inconclusive means small, poorly fitted or top-dose-only effect; inactive means no such curve, though single readings can be large or run the other way; note: nearly all actives have a fitted effect of over 50% in size
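Growth recovery, yeast-based: influenza A NS1 expressed in S. cerevisiae causes slow growth, and suppressors are detected by OD600. The parent strain without NS1 is used as positive control.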
Lassa entry inh – inhibitors of Lassa virus binding or cell entry; Lassa virus pseudotype entry inhibition, cell reporter; control for the full effect not named in the record; Potency, µM (top dose mostly 37.9 µM), inactives show top-dose activity change, negative = inhibition, most hits filed as inhibitors; actives 1.2% (n = 300,000); AID 540256; active means well fitted inhibition curve with a large enough effect; inconclusive means small, poorly fitted or top-dose-only effect, or effect the other way; inactive means flat fitted curve, though single readings scatter; tested in HEK293 cells; note: % is set by controls: 0 for no effect and ±100 for the full control effect; nearly all actives have a fitted effect of over 50% in size; luciferase read-out
SARS PLpro yeast – inhibitors of SARS-CoV papain-like protease in yeast; Potency, µM (series often up to 32.9 µM), for the others: at the top dose activity, positive = growth rescue; actives 0.19% (n = 330,000); S. cerevisiae expressing SARS-CoV PLpro, growth rescue; control for the full effect not named in the record; active means well fitted rising curve with a large enough effect; inconclusive means small, poorly fitted or top-dose-only effect; inactive means no such curve, though single readings can be large or run the other way; note: 0% is about no effect; nearly all actives have a fitted effect of over 55% in size; growth read by luminescence after 48 h
Numbers without * were called inactive; ? = inconclusive; nt = no result given; & = joins results of further samples; [ ] = remark or other dose. Unless noted, calls come from the whole dose curve; as a rule, active = well fitted curve in the direction sought with a large enough effect; inconclusive = small, poorly fitted or top-dose-only effect, or another doubt; inactive = no such curve, though single readings can be large; an effect the other way counts as inactive or inconclusive. Potency is the fitted concentration of half-maximal effect.

SMILES | 2A StopGo | Marburg entry inh | Cruzain inh noDet | RE007 growth inh | Cruzain Triton | NS1 function inh | Lassa entry inh | SARS PLpro yeast
COc1ccc(-c2nc(NC(=O)c3ccc(OCC(=O)Nc4ccc(F)cc4)c(OC)c3)sc2C)cc1 | 18µM* | ? | -10% | 1% | -0.1% | 8% | ? | 0%
O=C(NC(=S)Nc1ccccc1)c1cccs1 | 47%[activator] | 0%[46.1 µM] | nt | -13% | nt | 15% | -7%[46.1 µM] | -3%
Cc1cc(N2C(=O)C(O)=C(C(=O)c3cc4ccccc4o3)C2c2ccc(Cl)cc2)no1 (stereo not given) | -13% | nt | nt | -19% | nt | 2% | nt | 1%
CN(C(=O)Nc1ccc(Cl)cc1Cl)[C@H]1c2cc(Br)ccc2OC[C@H]1CO | ? | ? | 25% | -9% | -3.1% | -18% | -22% | -25%
Cn1c(CCC(=O)O)nc2cc(S(=O)(=O)N3CCCC3)ccc21 | -8% | 0%[46.1 µM] | nt | 6% | nt | nt | 10%[46.1 µM] | 3%
O=C(NCC(=O)N1CCOCC1)c1ccc(Cl)c(Cl)c1 | 33%[activator] | ? | nt | -24% | nt | nt | ? | -7%
CCOc1ccc(NC(=O)CCS(=O)(=O)c2ccc3nc(C)sc3c2)cc1 | -9% | nt | 0% | nt | 0.0% | nt | 9%[46.1 µM] | nt
NS(=O)(=O)c1cccc(NC(=O)c2cccc(Oc3ccccc3)c2)c1 | -18% | -6%[46.1 µM] | nt | -16% | nt | -11% | ? | 0%
CC1CCCC(C)N1/N=C/c1ccc(N(C)C)cc1 (stereo not given) | 29% | ? | nt | -10% | nt | nt | 2% | 0%
COc1ccc(-c2nc3c(c(SCC(=O)N4CCOCC4)n2)COC(C)(C)C3)cc1 | -5% | 3% | 8% | -2%[3.69 µM] | 2.1% | 1% | -4% | 5%
Cc1ccc(C)c(C(=O)CC2(O)C(=O)Nc3ccccc32)c1 (stereo not given) | -9% | -1% | 2% | -6% | 0.1% | 2% | 1% | 0%
O=c1[nH]c2ccc(NS(=O)(=O)c3ccc(F)cc3)cc2s1 | 18% | nt | -1% | nt | -1.4% | nt | -9%[46.1 µM] | nt
CS(=O)(=O)N(CC(=O)N1CCCC1)c1ccc(OCc2ccccc2)cc1 | nt | ? | ? | 1% | 3.7% | -10% | -23% | -4%
O=C(NCCS(=O)(=O)NCc1ccc(Cl)cc1)c1ccccc1 | 14% | 2%[46.1 µM] | nt | -16% | nt | nt | 5% | 4%
COCCn1c(C)cc(O)c(C(c2ccccc2)N2CCN(c3ccc(F)cc3)CC2)c1=O (stereo not given) | -5% | nt | -2% | nt | 0.7% | nt | 7%[46.1 µM] | nt
CCn1c(N2CCN(S(=O)(=O)c3ccc(F)cc3)CC2)nc2ccccc21 | ? | ? | nt | -4% | nt | -7% | -22% | -1%
COc1ccc(NS(=O)(=O)c2cccc(C(=O)N3CCCC(C)C3)c2)cc1 (stereo not given) | 5% | -10%[46.1 µM] | nt | 8% | nt | nt | -25% | 1%
COC(=O)C1=C(C)NC(=O)/C1=C\c1cc(C)n(-c2ccccc2F)c1C | -1% | ? | nt | 2% | nt | 3% | ? | -1%
Cc1ccc(S(=O)(=O)N2CCN(CC(O)c3ccccc3)CC2)cc1 (stereo not given) | -20% | 13% | nt | 17% | nt | 7% | -10% | 1%
Cc1csc(=O)n1CCC(=O)OCC(=O)Nc1ncc(Cl)cc1Cl | 9% | -2% | nt | 3% | nt | nt | 1%[46.1 µM] | 1%
CCN(CC)S(=O)(=O)c1ccc2c(c1)N(CC(=O)NCCCN1CCN(c3cc(Cl)ccc3C)CC1)C(=O)CO2 | ? | 13µM* | 4% | nt | 0.2% | nt | ? | nt
O=C(CN1C(=O)c2ccccc2C1=O)Nc1ccccc1C(=O)NC1CCCCC1 | 0% | 4% | 6% | 1% | -2.2% | 5% | 20% | 1%
O=C(NCCC1=CCCCC1)c1ccc(CN2CCOCC2)cc1 | -12% | -11% | -2% | -24% | -2.8% | -8% | ? | -28%
O=C(CN(C(=O)c1csnn1)c1ccc(F)c(Cl)c1)NC1CCCCC1 | -3% | -3%[46.1 µM] | nt | -9% | nt | -2% | -9%[46.1 µM] | 1%
Cc1oc2ccc(OCc3ccccc3Cl)cc2c1C(=O)O | 7% | nt | nt | -13% | nt | 0% | nt | -2%
c1cncc(-c2nc(Oc3ccc(-c4nnco4)cc3)c3c4c(sc3n2)CCCC4)c1 | nt | 5% | 22% | nt | 3.2% | -3% | nt | 4%
C=C(C)CC1(NC(C)c2ccccc2)CCCCC1 (stereo not given) | -14% | ? | 3% | -4% | 0.7% | 7% | 1% | -8%
Cc1ccn(CCC(=O)NC2CC(C)(C)Cc3c2cnn3-c2ccccc2C)n1 (stereo not given) | -3% | -4%[46.1 µM] | nt | 12% | nt | 1% | 30%[46.1 µM] | ?
Cc1ccc2c(c1)C1C=CCC1C(C(=O)O)N2 (stereo not given) | nt | -35%&-35% | ? | nt | -19% | 8% | 3% | -13%
COc1cccc(NC(=O)CN(C)C(=O)c2c(C)nn(Cc3ccc(C)cc3)c2Cl)c1 | 6% | 0%[46.1 µM] | nt | 39% | nt | nt | ? | -4%
Cn1nc(-c2ccc(Cl)cc2)c2cc(C(=O)NCCCN3CCCC3)sc21 | -29% | nt | -2% | 2% | -6.5% | 2% | nt | -5%
Cc1cccc(OCCCC(=O)Nc2ccc(S(=O)(=O)Nc3nccs3)cc2)c1C | -4% | 14% | nt | -2% | nt | 18% | -16% | -1%
CC(=O)Nc1ccc(NC(=O)CSCc2ccccc2Cl)cc1 | 42%[activator] | 15%[46.1 µM] | nt | 5% | nt | nt | -1% | nt
CCOc1ccccc1NC(=O)C1=C(C)Nc2ncnn2C1c1sccc1C (stereo not given) | -9% | nt | 13% | nt | -5.0% | nt | ? | nt
CCC(C)(C)NC(=O)c1ccc(S(=O)(=O)N2CCCCCC2)cc1 | -11% | ? | nt | 7% | nt | nt | ? | 0%
Cc1[nH]c2ccccc2c1SCc1n[nH]c(=S)n1C | -22% | nt | nt | 21% | nt | ? | nt | 2%
C[n+]1c(/C=C/c2ccc3c(c2)OCO3)ccc2ccccc21 | -19% | ? | nt | -2% | nt | nt | 0%[46.1 µM] | -4%
Cc1ccc2c(c1)N(C(=O)CCC(=O)N1CCN(c3cccc(C)c3C)CC1)CCO2 | 14µM* | nt | nt | 5% | nt | -54% | nt | -28%
COc1ccccc1NC(=O)NCC1(N(C)C)CCCCC1 | -16% | 3%[46.1 µM] | nt | -15% | nt | ? | -1% | 3%
Cc1ccc(C(C)C)c(OCC(O)CN2CCN(c3ccccc3F)CC2)c1 (stereo not given) | -25% | nt | 5% | nt | -4.5% | nt | 24%[46.1 µM] | nt
O=C1/C(=C2/NCCN2C2CC(=O)N(c3ccccc3)C2=O)CC/C1=C\c1ccccc1 (stereo not given) | -6% | ? | nt | -16% | nt | nt | 14%[46.1 µM] | 1%
CC(Cl)C(=O)Nc1c2c(nn1-c1ccccc1)CSC2 (stereo not given) | 5% | nt | nt | ? | nt | 4% | nt | -2%
O=C(CN1CCOCC1)N1CCCc2ccccc21 | 0% | 5% | nt | -17% | nt | 2% | 3% | 0%
CN(C)c1ccc(C(=S)N2CCCC2)cc1Br | 32%[activator] | 0% | nt | -8% | nt | 0% | 22% | 2%
Clc1ccccc1Cn1nnc2c(NCCN3CCOCC3)ncnc21 | -11% | 16% | -1% | 9% | 6.7% | -8% | 24%[14.3 µM] | 0%
O=C(Cc1ccc(Cl)cc1)Nc1ccccc1N1CCOCC1 | -18% | -6% | -4% | 10% | 2.7% | -11% | -17% | 1%
Cc1ccc(S(=O)(=O)/N=C(/NC(=S)Nc2ccccc2)c2ccccc2)cc1 | 34%[activator] | 0%[46.1 µM] | -8% | 0% | -4.3% | -1% | ? | 18%
CCC1(C)Cc2c(sc3[nH]c(=S)[nH]c(=S)c23)CO1 (stereo not given) | -9% | nt | nt | 19% | nt | 4% | nt | 1%
O=C(CC1S/C(=N/N=C/c2ccco2)NC1=O)Nc1ccccc1 (stereo not given) | -12% | 10%[46.1 µM] | nt | -22% | nt | nt | nt | 3%
Cc1ccc(-c2nnn(CC(=O)N3CCCc4ccccc43)n2)cc1 | 6% | ? | -3% | -9% | -9.7% | -11% | -15% | -5%
Cc1ccc(S(=O)(=O)c2cn(C)c3cc(N4CCN(C)CC4)c(F)cc3c2=O)cc1 | 3%&-4% | -20%&-20%[46.1 µM] | nt | -10% | nt | -3% | -9%&8%[46.1 µM] | 3%
Nc1ccccc1N=Cc1ccc(-c2cccc(Cl)c2)o1 | ? | ? | nt | ? | nt | nt | ? | -25%
Nc1nc2n(n1)C(c1ccco1)CC(c1ccc(Cl)c(Cl)c1)N2 (stereo not given) | -11% | -4% | -6% | 3% | -6.3% | 12% | -3% | 4%
O=C(Nc1cccc(F)c1)Nc1ccnn1C1CCN(C(=O)CCN2CCCO2)CC1 | 2% | 3% | nt | -20% | nt | 8% | -5% | 2%
CCOC(=O)C1=C(C)NC(=O)NC1c1ccc(OC(=O)c2ccco2)cc1 (stereo not given) | -22% | 3% | 0% | 6% | -6.3% | 15% | 18% | -17%
Cc1c(C(c2ccc(F)cc2)c2c(O)c3ccccc3oc2=O)c(=O)n(-c2ccccc2)n1C (stereo not given) | 28%&0% | 14%[46.1 µM] | -16%&-3% | 0% | -18%&-7.9% | ? | ? | ?
COc1ccc(NS(=O)(=O)c2ccc(NS(=O)(=O)c3cccs3)cc2)c(OC)c1 | 4% | -3%[46.1 µM] | nt | -13% | nt | 19% | 3% | 1%
CCNc1nc2c(c(=O)[nH]c(=O)n2C)n1Cc1ccc(F)cc1 | -6% | nt | 4% | -9% | 2.4% | -9% | nt | 5%
Fc1ccc(COc2ccc(C(=S)N3CCCC3)cc2)cc1 | 52%[activator] | ? | nt | 4% | nt | -19% | ? | -5%
CCc1ccc(N2CC(C(=O)OCC(=O)NC3CCS(=O)(=O)C3)CC2=O)cc1 (stereo not given) | 6% | 3% | 5% | 4% | 1.3% | -2% | 4% | 7%
CCN(CC(=O)NCCc1ccc(S(N)(=O)=O)cc1)Cc1ccccc1 | -23% | -3%[46.1 µM] | nt | 7% | nt | 10% | -15%[46.1 µM] | -1%
COc1ccc(NC(=O)N2CCCC(C(=O)NCc3ccccc3F)C2)cc1 (stereo not given) | -24% | -4% | nt | 4% | nt | 4% | -10% | 2%

Source: PubChem BioAssay (National Center for Advancing Translational Sciences (NCATS))
